# From PubChem BioAssay
# RGS16-Gao: modulators of RGS16 binding to Galphao, primary screen, biochemical, human proteins, multiplexed bead flow cytometry | Regulator of G-protein signaling 16 (Homo sapiens) + Guanine nucleotide-binding protein … | bead-based flow cytometry RGS16-Galphao binding, fluorescence; actives lie on both sides | binding response (% of control), % at 10 µM | hit rate 0.38% among 220,000 | AID 1441, 2008;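 active = below 25% or above 175%, edge rows of some plates excepted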;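 note: Galphao activated by GDP with aluminum fluoride before binding; 100% = wells without compound and 0% = beads without RGS; some results beyond the cut were filed as inactive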
# Target sequence (O15492 whole entry, looked up): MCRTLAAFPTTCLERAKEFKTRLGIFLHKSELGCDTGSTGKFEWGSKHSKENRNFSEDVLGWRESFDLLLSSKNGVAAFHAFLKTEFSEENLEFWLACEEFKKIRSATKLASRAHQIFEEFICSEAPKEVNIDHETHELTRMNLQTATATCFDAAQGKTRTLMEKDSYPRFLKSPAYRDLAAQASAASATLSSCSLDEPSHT
# Target sequence (P09471 whole entry, looked up): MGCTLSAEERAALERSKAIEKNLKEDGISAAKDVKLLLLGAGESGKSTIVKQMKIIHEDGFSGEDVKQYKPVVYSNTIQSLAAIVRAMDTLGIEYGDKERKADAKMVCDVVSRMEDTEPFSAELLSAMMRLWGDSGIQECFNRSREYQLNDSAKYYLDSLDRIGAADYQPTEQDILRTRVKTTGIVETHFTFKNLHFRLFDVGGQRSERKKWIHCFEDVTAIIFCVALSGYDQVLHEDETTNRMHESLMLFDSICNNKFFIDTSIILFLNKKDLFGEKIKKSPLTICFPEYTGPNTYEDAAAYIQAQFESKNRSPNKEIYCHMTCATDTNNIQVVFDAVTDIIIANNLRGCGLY
# HSV augment: enhancers of HSV replication in host cells, fold increase, host cell viability; maximum fold increase; AID 1956, 2009; hit rate 0.005% among 220,000; HSV replication augmentation in cells;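 active = peak rise of 1.5-fold or more in the series; tested in PC3 cells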;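 note: first round at 10 µM; read as green reporter fluorescence; hits show the peak of a series up to 25 µM; 1 = signal of infected wells without compound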
# GALR2 ag: GALR2 receptor agonists, primary screen, cell-based; GALR2-expressing cells, agonist activation read-out; activation, %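 (tested at 5 µM)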; hit rate 0.48% among 140,000;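 active = above mean plus 3 SD of all compounds, about 5% in these data, not always enough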;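 note: 0% = vehicle buffer wells and 100% = reference agonist at full effect; tested in CHO reporter cells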
# Target sequence (O43603 whole entry, looked up): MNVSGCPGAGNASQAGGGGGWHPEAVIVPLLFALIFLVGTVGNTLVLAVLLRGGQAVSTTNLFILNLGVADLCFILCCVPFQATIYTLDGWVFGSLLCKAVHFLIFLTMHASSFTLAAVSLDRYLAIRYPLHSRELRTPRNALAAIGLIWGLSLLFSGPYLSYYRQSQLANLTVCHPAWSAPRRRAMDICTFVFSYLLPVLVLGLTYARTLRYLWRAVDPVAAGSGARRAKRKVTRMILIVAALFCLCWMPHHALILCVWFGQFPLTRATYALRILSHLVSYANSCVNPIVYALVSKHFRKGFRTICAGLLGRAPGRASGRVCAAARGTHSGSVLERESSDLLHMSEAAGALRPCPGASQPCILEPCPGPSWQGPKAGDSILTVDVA
# INS promoter inh: inhibitors of insulin promoter-driven GFP, primary screen, imaging, TRM-6 cells (human fetal islet line), eGFP reporter, cell count; reporter expression induced with tamoxifen; inhibition, % at 2 µM; hit rate 0.9% among 130,000; AID 1273, 2008;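 active = inhibition above the mean plus 3 SD, with well images judged a real hit on visual review, cut at about 60% in these data, passing the limit was not always enough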
# PKD1 inh: inhibitors of human PKD1 kinase, biochemical, fluorescence polarization | Serine/threonine-protein kinase D1 (Homo sapiens), Q15139 | PKD1 kinase fluorescence polarization assay | inhibition, %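 (about 10 µM by stock and volumes)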 | hit rate 0.056% among 200,000;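 active = inhibition of 50% or more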;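 note: controls were vehicle for no effect and a reference inhibitor for full effect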
# INS promoter inh cell count: also measured in INS promoter inh; calls as there; normalized cell count, %; measured here: cell count, toxicity; reference of the scale not given here;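 cells exposed to compound for 48 h; stained nuclei by imaging scaled within each plate; lower means fewer cells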
# HSV augment primary fold: second read-out of HSV augment, no call of its own (marks repeat the call); fold increase; compound at 10 µM; measured here: primary screen fold increase 10 uM; tested in PC3 cells;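 GFP signal in the first replicate; 1 = infected wells without compound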
# Numbers without * were called inactive; i = inactive; . = not tested or not shown; [ ] = another dose, or the depositor's remark. Rows were taken by chance; any-hit rate near 1.3%.
SMILES,RGS16-Gao,HSV augment,HSV augment primary fold,GALR2 ag,INS promoter inh,INS promoter inh cell count,PKD1 inh
CN(CC(=O)NCCc1ccccc1)S(=O)(=O)c1cccc2nsnc12,108,i,1.1,-2.1,-6,112,7
CN1N=C(C(=O)Nc2ccc3c(c2)CCC3)CCC1=O,97,i,1,.,.,.,-2
CC1CN(C2=NC(=O)/C(=C3/C(=O)N(Cc4ccc(F)cc4)c4ccccc43)S2)CC(C)O1 (stereo not given),92,i,0.9,.,.,.,.
COc1cccc(N=C2SC(CC(=O)Nc3ccccc3)C(=O)N2Cc2ccccn2)c1 (stereo not given),101,i,0.95,.,.,.,-1
c1ccc(-c2csc(Nc3cccnc3)n2)nc1,100,i,0.85,-1.3,-454,44,-3
Cc1ccc(OCCCN2CCCC2)c(C)c1,112,i,1.1,-1.6,-65,77,-10
O=C(O)c1cccnc1SCC(=O)N1CCCc2ccccc21,102,i,1.1,.,.,.,.
CCOC(=O)c1c(C(=O)OCC)c(C)n(CCc2ccccc2)c1C,95,i,1,-2.0,-7,107,-14
COC(=O)N1CCN(S(=O)(=O)c2ccc(F)cc2)CC1,96,i,1.2,-0.5,36,106,-6
CCN1CCCC1CN(Cc1cc2ccc(C)cc2[nH]c1=O)C(=S)Nc1ccccc1C(=O)OC (stereo not given),100,i,0.94,.,.,.,-3
Cc1nc(N2CCN(S(=O)(=O)c3ccc(F)cc3)CC2)c2c(-c3cccs3)csc2n1,111,i,0.92,.,-64,106,-1
Cc1cccc(CS(=O)(=O)c2nnc([C@H](Cc3ccccc3)NC(=O)OC(C)(C)C)o2)c1,95,i,0.7,0.7,31,73,-3
C=CCn1cnc2c(sc3nc(C)cc(C)c32)c1=O,101,i,0.91,.,.,.,.
COc1cccc(C(=O)Nc2ccccc2)c1,104,i,0.82,-0.6,21,65,8
COCCn1c(SCc2nc3scc(-c4ccc(Cl)cc4)c3c(=O)[nH]2)nnc1-c1cccc(C)c1,100,i,0.9,0.8,.,.,4
NC(=S)N=Nc1c(O)n(CCCl)c2ccccc12,108,i,1,.,.,.,7
COCCNC(=O)NC(=O)COC(=O)C1(c2ccc(Cl)cc2)CC1,111,i,1,.,.,.,3
Cc1ccc(S(=O)(=O)N(C)CC(=O)N2CCCc3ccccc32)cc1,127,i,0.91,-1.1,17,82,3
CCN(CC)Cc1c(O)ccc2c([N+](=O)[O-])c(C)n(-c3ccc(OC)cc3)c12,102,i,0.7,-2.1,78*,127*,-1
CCOC(=O)c1ccc(NC(=O)CSc2nnnn2C2CCCCC2)cc1,106,i,1,-0.3,-192,72,-5
CCSC1=N/C(=C\c2ccccc2)C(=O)N1,104,i,0.96,-1.0,-62,108,-8
O=C(CN1C(=O)NC2(CCCC2)C1=O)OCc1cc(=O)n2cc(Br)ccc2n1,98,i,1.1,.,.,.,.
CCN(CC(=O)Nc1ccccc1OC)CC(=O)Nc1sccc1C#N,102,i,0.95,.,.,.,-2
O=C(NCc1cccnc1)C(=O)Nc1nc(C23CC4CC(CC(C4)C2)C3)cs1,102,i,0.96,.,.,.,.
OC1CCCN(c2c3c(nc4cc(-c5cccc(F)c5)nn24)CCCC3)C1 (stereo not given),97,i,0.84,.,.,.,-1

# The results go on:
SMILES,RGS16-Gao,HSV augment,HSV augment primary fold,GALR2 ag,INS promoter inh,INS promoter inh cell count,PKD1 inh
CN1C(=O)C(O)(CC(=O)c2cccs2)c2ccccc21 (stereo not given),98,i,1,.,21,160,2
CC(C)(C)NC(=O)C(c1ccc(O)cc1)N(C(=O)Cn1nnc(-c2ccc(F)cc2)n1)c1ccccc1F (stereo not given),108,i,0.92,.,.,.,-12
CC1C(c2ccccc2)=NNc2nc3c(c(=O)n(C)c(=O)n3C)n21 (stereo not given),109,i,0.9,.,.,.,.
COCC1CCCN(C(=O)c2ccc(OC3CCN(Cc4ccccn4)CC3)cc2)C1 (stereo not given),100,i,0.91,.,.,.,0
CCCCNC(=O)CSc1nnc(NC(C)=O)s1,97,i,1,-1.4,4,109,-12
COc1ccc(N(C)C(=O)c2ccc3nc(-c4ccccc4)c(-c4ccccc4)nc3c2)cc1,107,i,0.95,0.0,18,134,6
CCC1CCCCN1C(=O)CCCOc1ccccc1 (stereo not given),100,i,1.1,-0.1,-22,115,-4
C=CCSc1[nH]c(=O)cc(C)c1C(N)=O,115,i,0.88,-1.5,-14,59,3
Cc1ccc(C(=O)N2CCN(S(=O)(=O)c3ccccc3[N+](=O)[O-])CC2)o1,102,i,0.84,.,.,.,8
COc1ccc(Cl)cc1NC(=O)Nc1ccccc1C(N)=O,114,i,1,.,8,33,3
COc1ccc(-c2nnc(SCC(=O)N/N=C/c3ccccc3C(=O)O)n2-c2ccccc2)cc1,182,i,1,.,0,76,2
CC(=O)Nc1ccc(OCC(O)CN2CCCCC2C)cc1 (stereo not given),68,i,0.97,-0.3,32,83,-9
Cc1nn(Cc2ccc([N+](=O)[O-])cc2)c(=O)n1-c1cccc(F)c1,93,i,0.79,-1.4,-120,100,-4
Cc1ccc(NCc2nnc(SC(C)C(=O)N/N=C/c3ccc(C)o3)n2-c2ccccc2)cc1 (stereo not given),100,i,0.9,-1.7,-8,84,-13
CCOC(=O)N1CCN(C(=O)CN(c2ccccc2OC)S(=O)(=O)c2ccc(C)cc2)CC1,102,i,0.92,-1.0,.,.,-5
COc1cc(C2C(C#N)=C(N)OC3=C2C(=O)CC(C)(C)C3)ccc1OC(=O)N1CCOCC1 (stereo not given),98,i,0.88,-1.0,i,39,3
O=c1c2c(nc3n1CCCCC3)sc1c(O)c(Br)ccc12,94,i,0.73,-1.8,19,139,2
Oc1c(Br)cc(Cl)cc1C=Nc1ccccc1Br,102,i,1.2,-0.2,-21,59,-15
COc1ccc(O)c(/C=C(\C#N)C(=O)Nc2cccnc2)c1,103,.,.,-1.1,.,.,-5
Cc1cccc(C)c1OCCCN1CCCC1,97,i,0.99,-3.5,-26,165,-3
COC(=O)C1Sc2[nH]c(=O)sc2C(c2ccc(Cl)cc2)C1C(=O)OC (stereo not given),104,i,1.1,-1.4,.,.,4
Cc1cccc(CN2C[C@]34CC[C@@H](C[C@@H]3S2(=O)=O)O4)c1,95,i,0.9,.,.,.,.
COc1cc(C(C)=O)ccc1OC(=O)C(C)N1C(=O)c2ccccc2C1=O (stereo not given),101,i,0.85,-1.5,18,45,-6
CC1CC(=O)N(CC(=O)N2CCCC2)c2ccccc2S1 (stereo not given),119,i,0.89,-1.5,.,.,18
CCOc1ccc(Nc2nc(N3CCCCC3)nc(N3CCCCC3)n2)cc1,100,i,0.77,-5.2,48,138,4

# Brought forward from above: 6 compounds, then new ones.
SMILES,RGS16-Gao,HSV augment,HSV augment primary fold,GALR2 ag,INS promoter inh,INS promoter inh cell count,PKD1 inh
Cc1cccc(C)c1OCCCN1CCCC1,97,i,0.99,-3.5,-26,165,-3
COC(=O)C1Sc2[nH]c(=O)sc2C(c2ccc(Cl)cc2)C1C(=O)OC (stereo not given),104,i,1.1,-1.4,.,.,4
Cc1cccc(CN2C[C@]34CC[C@@H](C[C@@H]3S2(=O)=O)O4)c1,95,i,0.9,.,.,.,.
COc1cc(C(C)=O)ccc1OC(=O)C(C)N1C(=O)c2ccccc2C1=O (stereo not given),101,i,0.85,-1.5,18,45,-6
CC1CC(=O)N(CC(=O)N2CCCC2)c2ccccc2S1 (stereo not given),119,i,0.89,-1.5,.,.,18
CCOc1ccc(Nc2nc(N3CCCCC3)nc(N3CCCCC3)n2)cc1,100,i,0.77,-5.2,48,138,4
COc1nc(Nc2nc3ccccc3c(=O)[nH]2)nc2ccc(C)cc12,101,i,0.81,.,.,.,.
O=C(c1cnn2c(C(F)F)cc(C3CC3)nc12)N1CCOCC1,102,i,1.1,-1.7,-14,100,-2
CCCC(c1nnnn1CC1CCCO1)N1CCN(c2nc3ccccc3s2)CC1 (stereo not given),99,i,0.96,-0.7,-238,51,3
CCN1CNC(=S)N(c2ccccc2C)C1,112,i,0.9,.,.,.,.
O=C(NCCc1c[nH]c2ccccc12)C(F)(F)F,96,i,0.92,-2.7,51,102,-3
O=C(NCc1cccs1)C12CC3CC(CC(C3)C1)C2,116,i,1,.,82*,79*,8
Nn1c(SCc2ccc(F)cc2)nnc1-c1ccncc1,98,i,1.1,.,.,.,.
CCOc1cc(/C=C/C(=O)c2ccc(C)cc2)ccc1OCC(=O)N(C)C,72,i,0.59,-0.5,27,48,3
COC(=O)C1=C(C)NC(C)=C(C(=O)OC)C1C(=O)OCC(=O)c1ccc(F)cc1,96,i,1,.,.,.,-2
Cc1ccc(-n2cc(CNCCN3CCOC3=O)c(-c3ccc(F)cc3)n2)cc1,96,i,0.86,.,.,.,1
COC(=O)C1=C(C)NC(=O)C1(Nc1ccc(Cl)cn1)C(F)(F)F (stereo not given),100,i,0.83,-1.4,49,95,-5
COC(=O)C1(Cc2ccc(O)c(CC3OC3(C)C)c2)OC(=O)C(O)=C1c1ccc(O)cc1 (stereo not given),96,i,0.92,.,.,.,.
CC(=O)N=Nc1[nH]c(N)c2ccccc12,100,i,0.97,.,.,.,-1
O=C(c1ccc(Cl)c(S(=O)(=O)N2CCCCCC2)c1)N1CCN(c2ccccc2O)CC1,100,i,0.97,.,0,74,2
O=C(CCCN1C(=O)c2cccnc2C1=O)Nc1ccc(Br)cc1,97,i,0.87,.,.,.,2
O=c1[nH]c(=O)c2nnc(N/N=C/c3ccccc3F)nc2[nH]1,100,i,0.92,.,.,.,.
CC1CCN(CCC(=O)Nc2ccc3c(c2)CCC3)CC1,117,i,0.8,-1.2,31,116,4
CSc1ccccc1NC(=O)c1c(C)noc1C,102,i,0.8,-1.5,48,145,-8
O=C(NCCN1C(=O)S/C(=C\c2ccc(F)cc2)C1=O)c1cccc(S(=O)(=O)N2CCOCC2)c1,105,i,0.79,-2.5,-26,94,-12
c1coc(Cn2nnnc2CN2CCN(C3CCCCC3)CC2)c1,107,i,0.82,-2.1,28,100,1
CCCCN(CC)S(=O)(=O)c1ccc(C(=O)Nc2nnc(-c3ccccc3Cl)o2)cc1,94,i,0.83,-1.0,.,.,-7
COc1ccc(C(=O)Oc2ccc(/C=N/NC(=O)Cc3ccc([N+](=O)[O-])cc3)cc2)cc1,112,.,.,-1.4,.,.,6
COc1c(Cl)cc(-c2noc(C)c2C(=O)NCc2ccccc2)cc1Cl,105,i,0.94,-1.6,.,.,4
CCc1nnc(SCC(=O)N2CCCc3ccccc32)nc1CC,86,i,0.91,-0.8,0,115,-6
FC(F)(F)c1nc(-c2cccnc2)ncc1-c1nnnn1-c1ccccc1,106,i,0.86,-3.1,.,.,-3

# Continued.
SMILES,RGS16-Gao,HSV augment,HSV augment primary fold,GALR2 ag,INS promoter inh,INS promoter inh cell count,PKD1 inh
Cc1[nH]nc2c1C(Cc1ccccc1)C(C#N)=C(N)O2 (stereo not given),104,i,0.95,-2.1,0,136,-12
CN(CCN(C)C(C)(C)C)C(=O)C(c1ccccc1)c1ccccc1,92,i,0.97,.,.,.,.
CCOc1ccc(CN2CCC(=O)NC2=O)cc1,102,i,0.92,-0.9,.,.,-1
CN(C)CCCNCC(=O)Nc1ccccc1N1CCOCC1,100,i,0.89,-5.0,.,.,3
Cc1noc(C)c1S(=O)(=O)N1CCC(C(=O)NCCC2=CCCCC2)CC1,99,i,0.93,-2.9,-11,97,3
Cc1cc2c3c(c1C)C(=O)C(=O)N3C(C)(C)CC2C (stereo not given),103,i,1.1,.,57,81,6
COc1cccc(C(=O)n2c(SC)nc3cc4c(cc32)OCCO4)c1,101,i,1,-0.6,.,.,10
CN(C)CCn1c(=S)[nH]c2ncccc2c1=O,100,i,0.93,.,.,.,-2
CCCSc1nc2c(c(=O)[nH]c(=O)n2C)n1C,97,i,0.69,-1.7,0,226,8
COc1ccc(-c2nnc(SCC(=O)c3[nH]c(C)c(C(C)=O)c3C)o2)cc1,180*[activator],i,1,-1.8,58,119,1
CC(c1ccccc1)C1CC(=O)N(C2CCCCC2)C1=O (stereo not given),99,i,0.81,0.1,29,140,-1
COc1ccc(OC)c(NC(=O)C2CCC(CNc3c(N4CCC(C)CC4)c(=O)c3=O)CC2)c1 (stereo not given),96,i,0.86,-2.8,.,.,10
CCCCOCCCNC(=O)N[C@H](C(=O)OC)C(C)C,107,i,0.94,0.1,.,.,-8
